gsp antagonist – antagonizes gsp, the McCune-Albright syndrome mutation; gsp-mutant cells, cAMP HTRF, 30 min; control for the full effect not named in the record; Potency, µM (doses to about 76.9 µM), for the others: at the highest dose activity change, negative = inhibition, usual class: inhibitors; hit rate 0.4% among 340,000; AID 624288; active = falling curve of any shape with a large fitted effect; inconclusive = falling curve, mostly with a smaller effect; inactive = flat or rising curve; cell line not stated here;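 further: intracellular cAMP measured with PDE inhibitor Ro 20-1724 present during compound exposure; potency means the concentration at half of the fitted maximal effect; on the % scale 0 is the no-effect control and ±100 the full control effect; nearly all actives have a fitted effect of over 65% in size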
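G418-selected cells were plated in DMEM/10% FBS for 16-24 h at 37C, then treated with compounds plus the PDE inhibitor […] (300 uM solution added) for 30 min at 37C. Intracellular cAMP was measured by HTRF after 30 min lysis at room temperature.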
CtBP-E1A blk – CtBP/E1A binding inhibition | AlphaScreen GST-E1A/His-CtBP binding, 1536-well; stronger effect = lower value; control for the full effect not named in the record | activity change, % (concentration not given with the values) | hit rate 0.49% among 340,000; in the data active means activity change below about -65%; inconclusive means about -30% to -65%; inactive means above about -30%; further: on the % scale 0 is the no-effect control and ±100 the full control effect
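In 5 uL wells, 23 nL compound meets equimolar GST-E1A and His-CtBP (5X stock 125 nM each) for 2 h, 37 °C. Beads (5X, 50 ug/mL) then 1 h, 37 °C, dark.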
ClpP mod – qHTS Assay for Activators of ClpP; AID 651965, 2013; ATP-dependent Clp protease proteolytic subunit (Bacillus subtilis (strain 168)), P80244; purified B. subtilis ClpP, FRET peptide cleavage, 20 min; Potency, µM (top dose mostly 57.5 µM), for the others: at the highest dose activity change, negative = active; hit rate 1.9% among 340,000; active = well fitted falling curve with a large enough effect; inconclusive = small, poorly fitted or top-dose-only effect; inactive = no such curve, though single readings can be large or run the other way; further: potency means the concentration at half of the fitted maximal effect; the source files actives as falling curves though it sought activators and does not explain the sign; nearly all actives have a fitted effect of over 65% in size; many hits overshoot -100%
Target sequence (P80244 whole entry, looked up): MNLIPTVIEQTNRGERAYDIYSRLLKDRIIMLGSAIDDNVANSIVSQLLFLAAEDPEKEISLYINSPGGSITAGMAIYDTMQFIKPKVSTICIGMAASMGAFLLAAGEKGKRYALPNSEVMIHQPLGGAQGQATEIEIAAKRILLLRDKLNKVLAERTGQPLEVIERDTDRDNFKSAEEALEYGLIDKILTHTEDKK
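FRET quenching reversal measured ClpP activation: 10 microg/mL B. subtilis ClpP at pH 8 with the FRET-FV decapeptide, read at 430 nm after 320 nm excitation. The 20-min minus 0-min signal was scaled between DMSO/no-enzyme wells and ADEP (5.8 microM final).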
Sfp inh – inhibitors of Bacillus subtilis Sfp phosphopantetheinyl transferase; hit rate 3.5% among 310,000; Biochemical Sfp PPTase activity, qHTS; Potency, µM, for the others: max response, negative = inhibition, most hits filed as inhibitors; Q9F4F7; active means well fitted inhibition curve with a large enough effect; inconclusive means small, poorly fitted or top-dose-only effect, or another doubt; inactive means no such curve, though single readings can be large or run the other way;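 further: the enzyme is Sfp with the accession as filed and its product quenches rhodamine fluorescence; potency means the concentration at half of the fitted maximal effect; 0% = enzyme reaction without inhibitor and -100% = no enzyme wells; top concentration of the series not given in the record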
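Reaction rates are the 30-min fluorescence difference (ex 525, em 598 nm) in wells containing 15 nM Sfp, 5 uM rhodamine-CoA and 12.5 uM BHQ-2-YbbR at pH 7.6 with 10 mM MgCl2.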
Menin-MLL FL inh – menin-MLL binding inhibition, fluorescein peptide; 290,000 tested, under 10 active; FP activity change, % at 61.4 µM; Fluorescence polarization, fluorescein-MLL peptide displacement from menin; AID 1766; inconclusive = falling polarisation curve, or a change in total fluorescence; inactive = total fluorescence flat and polarisation flat or rising; no compound was filed as active; the % refers to the polarisation; negative = inhibition;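 further: % of control where 0% means no effect; inhibitors lower the polarisation; unlabelled MLL peptide was the positive control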
gsp ag – activates gsp, the McCune-Albright syndrome mutation. gsp mutant cells, cAMP HTRF, 30 min; control for the full effect not named in the record. hit rate 0.13% among 340,000. Potency, µM (highest dose often 76.9 µM), for inactives: at the top dose activation (cAMP increase), usual class: activators. AID 624287; active = well fitted activation curve with a large enough effect; inconclusive = small, poorly fitted or top-dose-only effect, or another doubt; inactive = no such curve, though single readings can be large or run the other way; cell line not stated here;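 further: phosphodiesterase inhibitor Ro 20-1724 added with compounds to block cAMP breakdown; potency means the concentration at half of the fitted maximal effect; nearly all actives have a fitted effect of over 60% in size; about a fifth of the inactives were tested at one dose only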
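Cells stably selected in G418 were plated at 2000/well, grown 16-24 hr, then given compounds in DMSO with the PDE inhibitor […] (300 uM solution added) for 30 min at 37C; cAMP was read by HTRF.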
TRPV1 potentiator – enhances activation of the human vanilloid receptor TRPV1; Q8NER1; TRPV1-expressing cells, Fluo-8 calcium influx, capsaicin EC20 potentiation; host cell line not named in the record; control for the full effect not named in the record; potentiation, % at 8.33 µM; hit rate 0.02% among 320,000; active means potentiation above 80%; inconclusive means 30% to 80%; inactive means below 30%; further: 0% is about no effect
Target sequence (Q8NER1 whole entry, looked up): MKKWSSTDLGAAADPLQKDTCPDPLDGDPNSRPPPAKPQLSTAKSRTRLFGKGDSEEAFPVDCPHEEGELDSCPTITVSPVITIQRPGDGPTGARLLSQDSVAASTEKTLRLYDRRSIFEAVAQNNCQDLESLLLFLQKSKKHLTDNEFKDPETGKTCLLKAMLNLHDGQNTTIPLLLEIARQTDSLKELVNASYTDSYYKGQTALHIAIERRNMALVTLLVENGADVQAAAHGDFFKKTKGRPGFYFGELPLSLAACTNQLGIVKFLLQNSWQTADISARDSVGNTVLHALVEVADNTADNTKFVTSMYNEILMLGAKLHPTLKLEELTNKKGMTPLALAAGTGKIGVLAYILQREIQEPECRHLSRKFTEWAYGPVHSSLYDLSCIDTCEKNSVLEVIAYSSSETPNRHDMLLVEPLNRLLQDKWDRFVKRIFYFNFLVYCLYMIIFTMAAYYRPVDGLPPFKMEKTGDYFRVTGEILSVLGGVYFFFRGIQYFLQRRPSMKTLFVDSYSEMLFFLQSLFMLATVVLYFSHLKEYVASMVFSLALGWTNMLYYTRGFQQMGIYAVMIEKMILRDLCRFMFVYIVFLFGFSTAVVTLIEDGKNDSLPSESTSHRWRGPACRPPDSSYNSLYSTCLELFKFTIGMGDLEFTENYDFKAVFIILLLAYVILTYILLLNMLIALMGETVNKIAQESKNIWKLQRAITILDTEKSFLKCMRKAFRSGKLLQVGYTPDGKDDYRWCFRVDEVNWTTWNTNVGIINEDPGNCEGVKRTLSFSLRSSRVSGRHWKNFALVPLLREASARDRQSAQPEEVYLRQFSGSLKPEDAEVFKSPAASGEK
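Cells expressing TRPV1 were dye-loaded with Fluo-8 and read kinetically: 10 s baseline, 3 min after compound (agonist portion), then 2 min after EC20 capsaicin (allosteric enhancer portion). Calcium-bound dye fluorescence at 480/520 nm.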
An asterisk follows results filed as active; ? = inconclusive; . = no result given; & = joins results of further samples; [ ] = remark or other dose. The order is random, and some 5.3% of all compounds hit somewhere here.

Values run as follows: gsp ag	CtBP-E1A blk	ClpP mod	gsp antagonist	TRPV1 potentiator	Menin-MLL FL inh	Sfp inh
(1) CCC(CC)C(=O)Nc1cc(OC)c(OC)cc1C(=O)O
  2%	-1	-8.1%	3%	-7	3.5	10%
(2) Cc1nnc(NC(=O)CSc2nnc(CNC(=O)C34CC5CC(CC(C5)C3)C4)n2C2CCCCC2)s1
  2%	4	-1.7%	-11%	29	2.6	18%
(3) Cc1ccc(NCc2nnc(SCC(=O)NNC(=O)Cc3ccccc3)n2C)cc1
  -2%	1	-0.8%	6%	-4	-1.3	14%
(4) COc1ccccc1CNC(=O)CNCCc1ccc(OC)c(OC)c1
  -14%	3	-1.1%	13%	?	3.2	-9%
(5) O=C(COC(=O)CCc1nc2ccccc2c(=O)[nH]1)Nc1c(Cl)cccc1C(F)(F)F
  -14%[15.4 µM]	2	-0.8%	9%	13	.	.
(6) COc1cc(NS(C)(=O)=O)c(OC)cc1NC(=O)c1cccc(F)c1
  -2%	-7	-2.6%	-3%	5	-1.2	4%
(7) CC1(C)Cc2c(c(N3CCCC3)nc3sc(C(=O)Nc4ccccc4)c(N)c23)CO1
  ?	8	3.9%	-6%	0	.	-11%
(8) CC1Cc2cc(S(=O)(=O)N3CCCCC3)ccc2N1C(=O)C1CCC1 (configuration not stated)
  -3%	.	0.3%	-3%	-29	-1.8	1%
(9) Cc1c(C#N)c(NC(=O)CCl)n(Cc2cccs2)c1C
  -4%	-1	1.0%	-3%	-2	?	7%
(10) COc1ccc(OC)c(C(O)c2coc3ccc(O)c(CN4CCOCC4)c23)c1 (configuration not stated)
  7%	2	-1.8%	-58%	7	6.0	2%
(11) C=CCC[C@@H](Cc1ccc(F)cc1)C(=O)OC[C@@H](Cc1c[nH]c2ccccc12)NC(=O)[C@H](CC=C)CC(=O)N(CCO)Cc1ccccc1
  -33%	-22	-2.5%	-15%	.	.	.
(12) CC(C)NCC(=O)Nc1c2c(nc3ccccc13)CCC2
  7%	7	.	11%	-12	-0.3	?
(13) CN(C(=O)c1cccc(NC(=O)Cc2ccc(NC(=O)C3CCCN(C(=O)C4CC4)C3)cc2)c1)C1CCCC1 (configuration not stated)
  .	-18	-1.5%	2%	.	.	.
(14) O=C(Nc1ccccc1N1CCOCC1)C1CCCO1 (configuration not stated)
  -11%	0	5.2%	-8%	.	.	.
(15) COC(=O)[C@@H](c1ccccc1)N(C)S(=O)(=O)c1cccc(S(=O)(=O)N(C)[C@@H](C(=O)OC)c2ccccc2)c1
  4%	-2	1.4%	-1%	17	-7.0	-2%
(16) Nc1nc2nc(-c3ccccc3)cc(C(F)(F)F)c2s1
  -15%[15.4 µM]	-21	.	.	-15	6.8	-1%
(17) O=C(NCCN1C(=O)C2C3C=CC(C3)C2C1=O)N1CCCCC1 (configuration not stated)
  ?	3	0.6%	3%	-30	1.3	-3%
(18) CN(C)S(=O)(=O)N1CCN(S(=O)(=O)N(C)C)CC1
  -3%	8	-16%	2%	-5	2.5	10%
(19) O=C(Nc1ccc(S(=O)(=O)NCc2ccccc2)cc1)C1CCCCC1
  ?	-2	25µM*	-6%	0	.	16%
(20) CCOc1ccc(S(=O)(=O)Nc2cccc(OC)c2)cc1
  -25%	9	-2.3%	-7%	3	2.2	-6%
(21) CCOC(=O)N1CCC(=NNC(=O)COc2ccc(C#N)cc2)CC1
  14%[15.4 µM]	1	-2.1%	9%	1	-3.2	13%
(22) CCOC(=O)C1=CN(Cc2cccc(F)c2)S(=O)(=O)NC1c1cccc(OC)c1 (configuration not stated)
  .	-20	-3.4%	-3%	.	.	.
(23) CCn1c(C(C)NC(=O)c2cccs2)n[nH]c1=S (configuration not stated)
  -2%	14	-7.3%	13%	10	2.0	-12%
(24) COc1ccccc1N1CC(C(=O)Nc2nnc(SCC(=O)NC(C)C)s2)CC1=O (configuration not stated)
  -20%	3	0.2%	9%	5	.	?
(25) O=[N+]([O-])c1cc(CS(=O)(=O)Oc2ccc(Cl)cc2)c(O)c([N+](=O)[O-])c1
  1%[15.4 µM]	-2	-5.3%	3%	.	.	.
(26) Fc1ccccc1N1CCN(Cc2cnc(Cl)s2)CC1
  -45%[inhibitor]	0	.	2%	-12	-4.0	12%
(27) C=C(C)COc1ccc(-c2[nH]ncc2-c2ccc(Br)cc2)c(O)c1
  0%	1	-2.8%	6%	4	3.8	23%
(28) Cc1nn(C)cc1S(=O)(=O)Nc1ccc(C(F)(F)F)cc1
  17%	6	0.0%	3%	9	.	14%
(29) COc1ccc(C)cc1NC(=S)NC(C)c1ccc(OC)c(OC)c1 (configuration not stated)
  -25%	.	1.7%	-19%	3	1.9	-3%
(30) COC(=O)[C@@]1(Cc2ccc(F)cc2)[C@@H]2[C@@H](CC(=O)[C@H]2CC(=O)C(=O)N(C)C)CN1C(=O)c1ccccc1
  .	5	0.9%	-2%	-8	-0.4&0.5	-4%&-3%
(31) Cc1cccc(NC2=CC(=O)OC(C)C2)c1 (configuration not stated)
  -5%	18	28µM*	5%	-17	2.2	19%
(32) Cc1ccc2nc3c(cc(S(=O)(=O)c4ccccc4)c(=N)n3Cc3ccco3)c(=O)n2c1
  7%	-15	-12%	?	-6	?	-16%
(33) CCCCN(C(=O)CN(C)CC(=O)Nc1cccc(OC)c1)c1c(N)n(CCCC)c(=O)[nH]c1=O
  -32%[inhibitor]	-4	-3.0%	-2%	.	.	.
(34) COCCN(C(=O)COC(=O)/C=C/c1cccs1)c1c(N)n(Cc2ccccc2)c(=O)[nH]c1=O
  -12%	-22	-0.4%	7%	12	.	.
(35) Cc1ccc(NC(=O)c2cccc(F)c2)cc1S(=O)(=O)N1CCCCCC1
  20%[15.4 µM]	-4	.	-18%	-12	-10	21%
(36) Cc1ccc(S(=O)(=O)CC(=O)N2CCN(c3cccc(C(F)(F)F)c3)CC2)cc1
  -42%[inhibitor]	6	30%	-1%	-11	.	5%
(37) Cc1cc(C(=O)OCC(=O)NCc2ccco2)c(C)n1-c1ccccc1
  -2%	-11	0.0%	27%	-14	-0.2	1%
(38) Cc1nn(CC(=O)NNC(=O)c2cccc(Br)c2)c(C)c1[N+](=O)[O-]
  ?	-4	-2.2%	6%	-1	-0.6	18%
(39) Nc1ccc(C(=O)N2CCCC2)cc1CS(=O)(=O)c1ccc(Cl)cc1
  30%[15.4 µM]	3	.	2%	0	1.2	18%
(40) C/C(=N\NC(N)=O)C1CC(Cc2ccccc2)C(=O)O1 (configuration not stated)
  -1%[15.4 µM]	5	-11%	-1%	2	2.4	10%
(41) Nc1ncnc(Nc2cccc(C(F)(F)F)c2)n1
  25%	-3	-1.1%	3%	-13	-2.5	8%
(42) OCCCN=C1CCCc2c1[nH]c1ccc(Cl)cc21
  4%[15.4 µM]	-8	.	7%	3	-1.3	10%
(43) CC(C)Sc1nnc(Cn2c(=O)sc3ccccc32)n1-c1ccccc1
  6%	6	-0.5%	8%	4	0.2	13%
(44) O=C(NC1CC1)c1ccc(COc2ccc(F)cc2)o1
  23%	2	-0.9%	5%	0	1.5	-9%
(45) Cc1nn(Cc2c(F)c(F)c(F)c(F)c2F)c(C)c1NC(=O)c1ccc(COc2ccc(Cl)cc2Cl)o1
  -17%	1	-2.7%	2%	6	4.7	5%
(46) CC(OC(=O)c1ccccc1C(=O)N(C)Cc1ccccc1)C(=O)NC1(C#N)CCCCC1 (configuration not stated)
  2%[15.4 µM]	5	0.2%	6%	12	.	.
(47) COc1ccccc1NC(=O)Cc1noc(CSc2nnc(C)s2)n1
  5%	2	-0.7%	-9%	-2	1.1	1%
(48) CC(=O)Nc1ccc(S(=O)(=O)NC2=NCN(CCOC(=O)c3ccccc3)CN2)cc1
  26%	9	-0.2%	4%	4	-0.3	8%
(49) Cn1c(N)c(C(=O)COC(=O)c2ccccc2C(=O)c2ccc(Cl)cc2)c(=O)n(C)c1=O
  12%	-5	.	?	.	.	.
(50) COc1cc2nc(CN3CCN(S(=O)(=O)c4ccc(Br)cc4)CC3)[nH]c(=O)c2cc1OC
  17%	-21	-1.9%	-22%	.	.	.

More compounds follow:
Values run as follows: gsp ag	CtBP-E1A blk	ClpP mod	gsp antagonist	TRPV1 potentiator	Menin-MLL FL inh	Sfp inh
(51) O=C(CN(C(=O)CCC(=O)Nc1nccs1)c1ccc(F)c(Cl)c1)NCc1ccco1
  -23%	?	1.0%	-3%	-3	4.5	-1%
(52) COC(=O)[C@H](C(C)C)N(Cc1ccccc1)S(=O)(=O)CCNC1CCCC1
  .	0	0.8%	0%	.	.	.
(53) Cc1c(Br)ccc(NC(=O)CCN2C(=O)C3C4CCC(C4)C3C2=O)c1C (configuration not stated)
  -12%	2	0.0%	-5%	1	-0.9	6%
(54) Cc1ccc(C(=O)CN2CCC(NC(=O)C3CCCCC3)CC2)cc1
  ?	3	3.2%	-18%	4	-0.9	-5%
(55) C[C@H]1CN([C@@H](C)CO)C(=O)Cc2cc(NC(=O)CCN3CCOCC3)ccc2O[C@@H]1CN(C)Cc1ccc(Oc2ccccc2)cc1
  .	?	-3.6%	-17%	.	.	.
(56) CCN(C(=O)CCC(=O)N(CC)c1ccccc1)c1ccccc1
  -5%	1	1.5%	4%	-9	0.2	?
(57) COc1ccc(C2CC(C(F)(F)F)n3nc(CO)c(Cl)c3N2)cc1OC (configuration not stated)
  -20%	0	-2.0%	6%	16	0.9	13%
(58) CC(C)(C)OC(=O)NCCC(=O)N/N=C/c1ccc2ncccc2c1
  10%[15.4 µM]	-20	-1.3%	8%	16	0.2	15%

Source: PubChem
